# Vif A3G: HIV-1 Vif–A3G interaction blockers – biochemical, TR-FRET, GST-Vif 1-94, biotin-A3G peptide, dose response retest, primary screen (AID 1117319); 260,000 tested, 0.57% active; TR-FRET GST-Vif / biotin-A3G peptide binding; higher % means a stronger effect; test concentration not given here; strong numbers were not always called active; inhibition, %; hits with a dose series show IC50 in µM;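 active = above the screen mean plus three standard deviations and confirmed in dose response; inconclusive = results disagree or hit not tested in dose response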;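 also: Vif residues 1-94 fused to GST binding biotinylated APOBEC3G peptide 110-148; 0% = full assay without inhibitor and 100% = GST in place of GST-Vif; retest series ran down from 100 µM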
# RanGTP-Imp inh: disruptors of Ran-importin-beta complex formation – biochemical, FRET, CFP-Ran, YFP-importin-beta, homogeneous, primary screen; inhibition, % (concentration not given with the values); cell-free CFP-Ran/YFP-importin-beta FRET ratio; 300,000 tested, 1.1% active;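 active = most replicates above 15%; inconclusive = exactly half above 15%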;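 also: 0% = DMSO wells and 100% = Ran loaded with GDP instead of GTP; wells of about 40 µL received 100 nL stock; the first replicate is given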
# FGF22 binding: shifts melting point of recombinant human FGF22; Q9HCT0; recombinant FGF22 thermal shift, SYPRO orange fluorescence; percent of sucrose octasulfate shift, DMSO zero; 340,000 tested, 1.5% active; calls only at 9.99 µM;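 active = melting point raised past a set limit in the mean and every replicate; inconclusive = no clear call; three in four hits are not shown here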
# Target sequence (Q9HCT0 whole entry, looked up): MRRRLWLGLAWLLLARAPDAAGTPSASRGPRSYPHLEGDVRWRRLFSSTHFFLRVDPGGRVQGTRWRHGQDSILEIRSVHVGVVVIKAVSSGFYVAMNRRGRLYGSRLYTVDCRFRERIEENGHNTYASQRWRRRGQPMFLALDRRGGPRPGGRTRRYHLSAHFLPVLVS
# E coli growth: inhibitors of Escherichia coli growth; OD600 absorbance (no concentration beside the values); AID 1053175; OD600, 23 h; active compounds read low; 330,000 tested, 0.21% active;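 active = OD600 absorbance below the run mean of sample wells minus 3.6 SD, in any replicate, cut at about 0.56 in these data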;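 also: stock transfer was 300 nL into about 60 µL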
# UCH37 inh: blocks the human deubiquitinase UCH37 | Q9Y5K5 | purified proteasome/UCH37, Ub-AMC cleavage fluorescence | inhibition, % (concentration not given with the values) | 330,000 tested, 0.33% active | AID 588478;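 active = mean of two replicates above 20%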;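 also: 0% = compound-free wells with enzyme and 100% = wells lacking proteasome; stock transfer was 100 nL into about 20 µL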
# Target sequence (Q9Y5K5 whole entry, looked up): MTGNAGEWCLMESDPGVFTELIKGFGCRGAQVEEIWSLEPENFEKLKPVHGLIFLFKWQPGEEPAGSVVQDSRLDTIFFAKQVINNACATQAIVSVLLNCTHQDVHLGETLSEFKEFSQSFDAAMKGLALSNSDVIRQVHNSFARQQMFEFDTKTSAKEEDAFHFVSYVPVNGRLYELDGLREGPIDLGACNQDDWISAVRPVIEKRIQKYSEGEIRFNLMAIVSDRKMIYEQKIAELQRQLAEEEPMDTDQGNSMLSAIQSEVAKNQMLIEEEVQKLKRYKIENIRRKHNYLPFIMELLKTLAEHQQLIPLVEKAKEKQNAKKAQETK
#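 Schedule: 30 min plus 25 min, room temperature / Material: human UCH37 within purified proteasomes / Technique: AMC fluorescence intensity at 355/460 nm / Buffer or medium: pH 7.4 Tris-HCl (50 mM) with ovalbumin, ATP-MgCl2, DTT / Controls: wells without proteasome as full block, compound-free enzyme plus substrate as uninhibited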
# MLL AF4-AF9 inh: MLL-AF4/AF9 protein interaction inhibition; AlphaScreen, biotin-AF4 peptide binding to FLAG-AF9; inhibition, % at 10 µM; 350,000 tested, 0.47% active; AID 651704;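 active = every replicate reaching a set inhibition limit, whatever the replicate mean, cut at about 25% in these data; inconclusive = mean inhibition reaches that limit but some replicates miss it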;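 also: 0% = plate neutral control median and 100% = total signal loss; the record names both 10 and 1 µM as test concentration; the first replicate is given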
# HNF4A DNA FP: change in binding of human HNF4 alpha to DNA | P41235 | 360,000 tested, 0.3% active | AID 1224865 | activity change, % at 10 µM | HNF4a-FITC DNA binding, fluorescence polarization, 1 h; in the data active = activity change above about 30%, passing the limit was not always enough;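 also: controls were the assay level and a saturating level of protein; the project sought stronger binding though the title names inhibitors; some compounds called inactive have numbers as strong as hits; positive values seem to mean higher polarization but the record does not say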
# Target sequence (P41235 whole entry, looked up): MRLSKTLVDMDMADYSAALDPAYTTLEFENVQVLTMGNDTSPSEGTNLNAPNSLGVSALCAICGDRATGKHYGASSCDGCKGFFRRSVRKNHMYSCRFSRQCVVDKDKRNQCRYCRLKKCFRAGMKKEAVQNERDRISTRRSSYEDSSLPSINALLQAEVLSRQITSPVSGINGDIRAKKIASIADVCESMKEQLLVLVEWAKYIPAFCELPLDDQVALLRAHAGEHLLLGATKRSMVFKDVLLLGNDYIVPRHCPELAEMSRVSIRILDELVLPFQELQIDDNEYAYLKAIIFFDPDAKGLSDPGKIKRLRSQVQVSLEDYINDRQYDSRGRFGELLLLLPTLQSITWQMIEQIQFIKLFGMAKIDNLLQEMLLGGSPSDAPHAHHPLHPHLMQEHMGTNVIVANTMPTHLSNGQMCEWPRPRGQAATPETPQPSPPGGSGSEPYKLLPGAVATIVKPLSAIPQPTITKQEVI
# An asterisk follows results filed as active; i = inactive; ? = inconclusive; . = no result given; & = joins results of further samples. An excerpt; rates above refer to the full screens.
SMILES,Vif A3G,RanGTP-Imp inh,FGF22 binding,E coli growth,UCH37 inh,MLL AF4-AF9 inh,HNF4A DNA FP
CC1(C)CC(O)(CNCc2ccc3c(c2)OCO3)CCO1 (stereo not given),1%,-1.3,.,0.73,2.1,-2.4,1.6
CC1CC(C)CN(CCCNS(=O)(=O)c2cc(Br)cc3c2N(C(=O)C2CC2)CC3)C1 (stereo not given),.,-2.4,i,0.62,2.4,1.8,0.9
COc1ccc(CCn2c(NN)nc3c2c(=O)[nH]c(=O)n3C)cc1,?,2.1,i,.,.,-3.5,-32
Cc1ccc(S(=O)(=O)N2CCCCC2)cc1NC(=O)c1ccccn1,15%,0.4,i,0.66,0.0,6.2,3.6
Nc1nnc(SCC(=O)N2CCc3ccccc32)n1-c1ccccc1,3%,-3.2,.,0.68,5.7,.,-3.0
CC(=O)CSc1nnc(-c2cnccn2)n1-c1ccccc1,1%,-1.8,.,0.68,-1.1,.,-1.4
CC(NC(=O)c1ccc(Cl)cc1)c1nnc(SCc2ccc([N+](=O)[O-])cc2)n1C (stereo not given),?,7.7,.,0.71,3.5,.,5.6
CC(C)C1CCN(C(=O)C2CCC(=O)N(C3CCCCCC3)C2)CC1 (stereo not given),0%,.,i,.,.,-0.4,10
Cc1cc(N/N=C/c2ccccc2O)nc(N2CCOCC2)n1,30%,2.4,i,.,.,8.8,1.8
Cc1cc(C)c(CN2CCC(N3CCC(C(=O)NCC4CCCO4)CC3)CC2)cc1C (stereo not given),.,-2.4,i,0.7,5.2,1.3,6.0
CCn1c(=O)c(=O)n(CC)c2cc(S(=O)(=O)Nc3ccc(C)cc3)ccc21,7%,-0.8,i,0.67,3.5,3.0,-0.6
COc1cc(/C=N/NC(=O)CC#N)cc(Br)c1O,.,1.6,i,.,.,-1.4,-2.0
NNC(=O)c1ccc(Cn2cc(Br)cn2)cc1,-2%,3.1,.,0.68,5.8,.,-3.4
COC(=O)CCCC(=O)N1CCCC(CNS(=O)(=O)c2ccc(OC)cc2)C1 (stereo not given),.,-1.9,i,0.65,5.5,-1.0,-2.2
CCN1CCN(c2ccc(S(=O)(=O)N3CCCCC3)cc2NC(=O)CC(C)c2ccccc2)CC1 (stereo not given),-9%,1.1,i,0.71,2.9,12,2.3
O=C(CCC1CCCC1)Nc1ccc(Br)cn1,15%,1.1,.,0.77,-0.6,.,-3.2
CCCCC(=O)NC(=S)Nc1ccc(S(=O)(=O)N2CCCC2)cc1,-6%,1.9,.,0.73,6.2,.,1.6
COC(=O)c1cc(S(=O)(=O)N2CCCC2=O)c(Cl)cc1Cl,.,-5.5,i,0.65,1.1,-1.5,2.6
O=C(O)CSc1ncccn1,-10%,6.2,i,0.68,2.0,-0.2,-3.7
Cc1ccc(-c2nnn(CC(=O)N(CCN3CCOCC3)C(C(=O)NC3CCCC3)c3ccncc3)n2)o1 (stereo not given),0%,-0.2,i,0.69,2.2,-4.3,2.5

# Arranged by value in UCH37 inh (lowest first): 3 of the compounds above
SMILES,Vif A3G,RanGTP-Imp inh,FGF22 binding,E coli growth,UCH37 inh,MLL AF4-AF9 inh,HNF4A DNA FP
COC(=O)c1cc(S(=O)(=O)N2CCCC2=O)c(Cl)cc1Cl,.,-5.5,i,0.65,1.1,-1.5,2.6
CCN1CCN(c2ccc(S(=O)(=O)N3CCCCC3)cc2NC(=O)CC(C)c2ccccc2)CC1 (stereo not given),-9%,1.1,i,0.71,2.9,12,2.3
CCCCC(=O)NC(=S)Nc1ccc(S(=O)(=O)N2CCCC2)cc1,-6%,1.9,.,0.73,6.2,.,1.6

# (more compounds)
SMILES,Vif A3G,RanGTP-Imp inh,FGF22 binding,E coli growth,UCH37 inh,MLL AF4-AF9 inh,HNF4A DNA FP
CC1(c2nnc(Cc3ccccc3)o2)CC(c2ccccc2Br)=NO1 (stereo not given),.,-3.5,i,0.64,1.6,-13,1.0
Nc1cc(=O)[nH]c(SCC(=O)N2N=C(c3ccc(Cl)cc3)CC2c2ccco2)n1 (stereo not given),.,0.2,i,0.71,-0.6,3.1,8.3
O=C(CCN1C(=O)/C(=C\c2ccc(F)cc2)SC1=S)Nc1ccccc1,.,3.8,i,0.72,9.8,0.1,3.4
NC(=O)Nc1ccc(C(=O)N2CCN(S(=O)(=O)Cc3ccccc3)CC2)cc1,-1%,.,i,0.7,1.4,-0.4,-2.0
CCc1nnc(NC(=O)C2CCC(CNc3c(N4CCC(C)CC4)c(=O)c3=O)CC2)s1 (stereo not given),12%,0.1,i,0.7,1.3,-21,7.0
C[C@H](CO)N1C[C@H](C)[C@@H](CN(C)S(C)(=O)=O)Oc2c(NC(=O)Nc3ccc4c(c3)OCO4)cccc2C1=O,2%,.,i,0.7,-2.1,-2.2&0.4,-0.7
COc1ccc(OCCN2CCN(S(=O)(=O)c3ccccc3C#N)CC2)cc1,-3%,.,i,0.67,3.1,-0.5,-1.8
COCCn1c(=NC(=O)CSCC(=O)N2CCOCC2)sc2cc(C)ccc21,-6%,-1.6,i,0.69,1.4,1.3,-1.1
COC(=O)c1ccc(CSc2nc3ccccc3c(=O)n2-c2ccccc2)o1,12%,-1.6,.,0.77,-1.1,.,4.8
CC(C(=O)c1ccc(-c2ccccc2)cc1)[n+]1cccc(Br)c1 (stereo not given),-8%,-0.4,i,0.69,2.5,2.5,3.6
CC(C)(C)c1ccc(CC(=O)N2CCC2(C)C(=O)NCCC#N)cc1 (stereo not given),.,.,i,.,.,-0.8,2.9
COc1ccc(SCC(O)Cn2c3ccccc3c3ccccc32)c(OC)c1 (stereo not given),.,.,i,.,.,-0.1,-1.9
COc1ccccc1NS(=O)(=O)c1cc(NC(=O)c2sccc2C)ccc1N1CCOCC1,.,2.2,i,0.7,4.4,-15,3.1
COCCCNC(=O)Cn1nnc(-c2ccc(NC(=O)c3ccc(F)cc3)cc2)n1,11%,-3.8,.,0.68,1.9,.,0.2
O=C(N/N=C/c1ccccc1O)C1SCCCS1,9%,-2.1,i,.,.,-3.6,3.7
CCNc1c(N)c(=O)oc2ccccc12,15%,-1.4,.,0.74,6.0,.,-1.0
Cc1ccc(C(=O)NCC2CCCN2S(=O)(=O)c2ccc(C)cc2)cc1 (stereo not given),2%,1.6,i,0.7,2.7,-8.8,1.0
CCCCCC[N+](C)(C)CCSSCC[N+](C)(C)CCCCCC,-21%,0.5,i,0.65,14,-7.8,2.1
CCOc1ccc(N(CC)S(=O)(=O)c2c(C)[nH]c(=O)[nH]c2=O)cc1,-9%,0.9,i,0.67,3.3,-3.1,-5.2
COc1cc([C@@H]2c3cc4c(cc3[C@@H](O)[C@H]3COC(=O)[C@H]23)OCO4)cc(OC)c1O[Si](C)(C)C(C)(C)C,.,5.5,i,.,3.7,0.8,0.0
O=C(CCNS(=O)(=O)c1ccc(Br)s1)NCc1ccc(F)cc1,5%,?,i,0.69,-1.1,-0.3,-0.5
CC(C)C(NS(=O)(=O)c1cccc2nsnc12)C(=O)NCc1ccco1 (stereo not given),.,3.2,i,0.72,2.2,4.5,-0.6
CCCCN(C(=O)c1cc2ccccc2o1)c1c(N)n(CCCC)c(=O)[nH]c1=O,.,.,i,0.66,-1.2,-0.8,2.6
CNC(=O)CN1C(=O)CSc2ncccc21,-6%,1.4,i,0.79,5.2,0.2,-1.2
NNC(=O)c1[nH]c2ccc(Br)cc2c1-c1ccccc1,-2%,2.9,i,0.7,3.2,-6.3,3.0
Cc1cccc(C)c1NC(=O)CN(C)C(=O)c1ccc(-c2cccc(C(F)(F)F)c2)o1,-2%,?,i,0.66,2.5,-9.5,-3.4
COC(=O)c1cc(Cl)c(NC(=O)c2cc3ccccc3o2)cc1OC,-9%,0.7,.,0.71,5.0,.,2.2
CCC(C)c1ccc(NC(=S)NCc2ccccn2)cc1 (stereo not given),21%,4.6,i,0.67,5.2,3.0,-0.9
CCOc1ccc(NC(=O)C2CCC(CNc3c(N4CCCCC4)c(=O)c3=O)CC2)cc1 (stereo not given),-5%,-0.8,i,0.7,1.9,-17,3.7
C1=CC(c2cc3ccccc3o2)OC(CCc2ccccc2)C1 (stereo not given),.,4.9,i,0.67,-2.0,-4.5,-1.2
CCC(=O)c1ccc(N2CCN(C(=O)c3ccccc3F)CC2)c(F)c1,-5%,?,i,0.65,2.6,0.3,-0.4
CCCCn1c(SCC(=O)NCc2cccs2)nc2c1c(=O)n(C)c(=O)n2C,14%,0.9,.,0.71,4.1,.,-0.4
CCOC(=O)C1CCCN(C(=O)c2ccc(OC(C)=O)cc2)C1 (stereo not given),3%,.,.,0.66,1.4,.,-2.3
CCOc1ccccc1NC(=O)COC(=O)c1c(CC)noc1C,4%,.,i,0.62,4.6,0.5,-0.7
Cc1cc(C)nc(N2CCC(C(=O)NCCc3ccccc3)CC2)n1,31%,-2.9,.,0.72,-2.1,.,-0.4
Cc1cc(Oc2ccccc2)nc(-c2ccccc2)n1,-1%,1.9,.,0.7,3.3,.,-0.2
COc1cccc(C(=O)Nc2ccc3c(c2)n(C)c(=O)n3C)c1,.,-0.3,i,0.67,2.6,0.6,0.2
O=C(CN1C(=O)C(=O)N(Cc2ccco2)C1=O)Nc1ccc(F)c(F)c1F,.,.,i,0.68,4.8,0.0,-7.3
CCOc1ccc(N(CC(=O)NCCOc2ccc(C)cc2)S(=O)(=O)c2ccccc2)cc1,4%,-3.2,i,.,.,1.9,3.3
CCOc1ccccc1C1CC(c2ccc(Br)cc2)Nc2nc(N)nn21 (stereo not given),?,-3.3,i,0.74,-1.7,3.4,-1.1
CCOc1ccc(N2CC(C(=O)Nc3ccccc3OC)CC2=O)cc1 (stereo not given),9%,6.2,i,0.74,4.5,-1.9,0.9
O=C(CNC(=O)c1ccccc1F)OCC(=O)N1CCCCC1,.,3.4,i,0.65,5.0,-7.6,3.7
Cc1ccc(NC(=O)CSc2nnc(C3CC3)n2CC2CCCO2)c(C)c1 (stereo not given),.,0.2,i,0.7,1.0,-4.1,3.0
COc1ccc(COC(=O)N/N=C(\C)CC(=O)Nc2ccc(Cl)cn2)cc1,6%,5.0,i,.,.,-2.2,-4.5
CCOC(=O)CSc1nc(N2CCOCC2)c2c(c1C#N)CC(C)(C)N(C)C2,8%,19*,.,0.65,-3.6,.,1.6
CCOC(=O)C1=C(C)NC(=O)NC1c1ccc(-c2ccccc2F)o1 (stereo not given),22%,0.8,i,0.72,-5.0,10,4.6
Cc1ccccc1OCC(=O)OCC(=O)NC1CCCC1,-7%,.,i,.,.,-5.4,-4.0
Cc1ccc(NC(=O)C/C(N)=N/O)cc1C,23%,3.2,.,0.66,3.2,.,-1.3
CS(=O)(=O)Nn1cnc2ccccc2c1=O,19%,2.7,.,0.73,2.2,.,0.7
CCOC(=O)n1c(=O)[nH]c2ccc(Br)cc21,-4%,0.7,i,0.7,1.9,-3.3,-6.3
C=C(C)COc1ccc2c(C)c(CCC(=O)NC3CC3)c(=O)oc2c1,4%,-0.8,i,0.71,-336,0.5,1.0
COc1cccc(C(=O)COC(=O)c2ccc(NC(=O)c3ccccc3)cc2)c1,.,4.6,.,0.72,0.3,.,-3.4

# Single records (already shown). Values in the order: Vif A3G | RanGTP-Imp inh | FGF22 binding | E coli growth | UCH37 inh | MLL AF4-AF9 inh | HNF4A DNA FP
# CCOC(=O)CSc1nc(N2CCOCC2)c2c(c1C#N)CC(C)(C)N(C)C2 in the list: 8% | 19* | . | 0.65 | -3.6 | . | 1.6
# Cc1ccc(NC(=O)C/C(N)=N/O)cc1C in the list: 23% | 3.2 | . | 0.66 | 3.2 | . | -1.3
# COc1ccc(COC(=O)N/N=C(\C)CC(=O)Nc2ccc(Cl)cn2)cc1 in the list: 6% | 5.0 | i | . | . | -2.2 | -4.5
# CCOC(=O)n1c(=O)[nH]c2ccc(Br)cc21 in the list: -4% | 0.7 | i | 0.7 | 1.9 | -3.3 | -6.3
# CS(=O)(=O)Nn1cnc2ccccc2c1=O in the list: 19% | 2.7 | . | 0.73 | 2.2 | . | 0.7
